Assay outcomes deposited in PubChem BioAssay by National Center for Advancing Translational Sciences (NCATS).
CtBP-E1A inh: blocks the CtBP interaction with E1A. AlphaScreen GST-E1A/His-CtBP binding, 1536-well; hits give low values; control for the full effect not named in the record. activity change, % (no concentration beside the values). 340,000 tested, 0.49% active. AID 651724; in the data active means activity change below about -65%; inconclusive means about -30% to -65%; inactive means above about -30%; note: % is set by controls: 0 for no effect and ±100 for the full control effect; compound concentration not given in the record
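Protein mix (5X: 125 nM each GST-E1A, His-CtBP) was incubated with pinned compound 2 h at 37 deg C in dark, in 50 mM Tris pH 8.0 buffer with 300 mM NaCl. Glutathione donor and nickel acceptor beads followed; AlphaScreen signal read after 1 h.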
Sfp PPTase inh: Sfp phosphopantetheinyl transferase inhibition; Q9F4F7; Biochemical Sfp PPTase activity, qHTS; Potency, µM, inactives show max response, negative = inhibition, actives largely listed as inhibitors; 310,000 tested, 3.5% active; active = well fitted inhibition curve with a large enough effect; inconclusive = small, poorly fitted or top-dose-only effect, or another doubt; inactive = no such curve, though single readings can be large or run the other way;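 note: the enzyme is Sfp with the accession as filed and its product quenches rhodamine fluorescence; potency is the fitted concentration of half-maximal effect; 0% = enzyme reaction without inhibitor and -100% = no enzyme wells; top concentration of the series not given in the record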
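Reaction rates are the 30-min fluorescence difference (ex 525, em 598 nm) in wells containing 15 nM Sfp, 5 uM rhodamine-CoA and 12.5 uM BHQ-2-YbbR at pH 7.6 with 10 mM MgCl2.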
TRPV1 PAM: enhances activation of the human vanilloid receptor TRPV1 | Q8NER1 | TRPV1-expressing cells, Fluo-8 calcium influx, capsaicin EC20 potentiation; host cell line not named in the record; control for the full effect not named in the record | potentiation, % at 8.33 µM | 320,000 tested, 0.02% active | AID 540277; active means potentiation above 80%; inconclusive means 30% to 80%; inactive means below 30%; note: 0% is about no effect
Target sequence (Q8NER1 whole entry, looked up): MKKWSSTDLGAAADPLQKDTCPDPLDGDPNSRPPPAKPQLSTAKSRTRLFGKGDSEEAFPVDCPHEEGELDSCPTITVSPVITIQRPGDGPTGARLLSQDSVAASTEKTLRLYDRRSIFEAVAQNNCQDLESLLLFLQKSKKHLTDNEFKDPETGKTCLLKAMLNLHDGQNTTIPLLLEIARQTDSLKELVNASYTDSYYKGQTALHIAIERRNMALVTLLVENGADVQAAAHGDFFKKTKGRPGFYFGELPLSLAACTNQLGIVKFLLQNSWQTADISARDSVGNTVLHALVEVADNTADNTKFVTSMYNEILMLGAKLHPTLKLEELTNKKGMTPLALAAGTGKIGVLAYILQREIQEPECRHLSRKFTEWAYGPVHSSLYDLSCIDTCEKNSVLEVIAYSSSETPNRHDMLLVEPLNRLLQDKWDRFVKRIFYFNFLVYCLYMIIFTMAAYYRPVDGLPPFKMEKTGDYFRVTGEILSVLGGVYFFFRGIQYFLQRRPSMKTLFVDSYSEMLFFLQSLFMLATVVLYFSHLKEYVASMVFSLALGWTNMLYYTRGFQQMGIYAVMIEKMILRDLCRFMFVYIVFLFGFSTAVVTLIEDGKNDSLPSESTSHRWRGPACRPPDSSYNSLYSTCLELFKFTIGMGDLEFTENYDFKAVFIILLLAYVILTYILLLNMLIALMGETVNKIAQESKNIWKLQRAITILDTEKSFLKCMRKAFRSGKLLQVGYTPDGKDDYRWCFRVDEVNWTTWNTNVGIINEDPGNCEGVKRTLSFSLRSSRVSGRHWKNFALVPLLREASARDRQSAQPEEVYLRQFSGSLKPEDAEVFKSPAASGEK
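Cells expressing TRPV1 were dye-loaded with Fluo-8 and read kinetically: 10 s baseline, 3 min after compound (agonist portion), then 2 min after EC20 capsaicin (allosteric enhancer portion). Calcium-bound dye fluorescence at 480/520 nm.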
gsp antagonist: gsp mutant antagonism | gsp-mutant cells, cAMP HTRF, 30 min; control for the full effect not named in the record | Potency, µM (titrated, usually from 76.9 µM), without a hit: at the highest dose activity change, negative = inhibition, hits mostly inhibitors | 340,000 tested, 0.4% active; active = falling curve of any shape with a large fitted effect; inconclusive = falling curve, mostly with a smaller effect; inactive = flat or rising curve; cell line not stated here;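 note: intracellular cAMP measured with PDE inhibitor Ro 20-1724 present during compound exposure; potency is the fitted concentration of half-maximal effect; % is set by controls: 0 for no effect and ±100 for the full control effect; nearly all actives have a fitted effect of over 65% in size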
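HTRF cAMP read-out (cAMP-d2 plus anti-cAMP antibody-K in lysis buffer, 30 min RT). Before lysis, cells are exposed to compounds with […] for 30 min at 37C in DPBS containing Ca/Mg, BSA and Tween 20.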
ClpP mod: qHTS Assay for Activators of ClpP; ATP-dependent Clp protease proteolytic subunit (Bacillus subtilis (strain 168)), P80244; purified B. subtilis ClpP, FRET peptide cleavage, 20 min; Potency, µM (top dose mostly 57.5 µM), inactives show top-dose activity change, negative = active; 340,000 tested, 1.9% active; AID 651965, 2013; active = well fitted falling curve with a large enough effect; inconclusive = small, poorly fitted or top-dose-only effect; inactive = no such curve, though single readings can be large or run the other way; note: potency is the fitted concentration of half-maximal effect; the source files actives as falling curves though it sought activators and does not explain the sign; nearly all actives have a fitted effect of over 65% in size; many hits overshoot -100%
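Purified B. subtilis ClpP, 10 microg/mL final in Tris/HCl pH8 with KCl, BSA, glycerol and Tween-20, cleaved an Abz/nitrotyrosine-quenched decapeptide. Fluorescence (ex 320, em 430) was read at 0 and 20 min at room temperature. Delta was normalized to 5.8 microM ADEP and DMSO/no-enzyme controls.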
gsp ag: gsp mutant agonism; Potency, µM (top dose mostly 76.9 µM), inactives show at the highest dose activation (cAMP increase), most hits filed as activators; gsp mutant cells, cAMP HTRF, 30 min; control for the full effect not named in the record; 340,000 tested, 0.13% active; active = well fitted activation curve with a large enough effect; inconclusive = small, poorly fitted or top-dose-only effect, or another doubt; inactive = no such curve, though single readings can be large or run the other way; cell line not stated here;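 note: phosphodiesterase inhibitor Ro 20-1724 added with compounds to block cAMP breakdown; potency is the fitted concentration of half-maximal effect; nearly all actives have a fitted effect of over 60% in size; about a fifth of the inactives were tested at one dose only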
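Cells in DMEM/10% FBS with G418 were pretreated with compounds in DMSO plus […] (300 uM stock) for 30 min at 37C. cAMP was measured by HTRF (cAMP-d2 plus anti-cAMP antibody-K) after 30 min at room temperature.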
Menin-MLL FL inh: displaces fluorescein MLL peptide from human menin. Fluorescence polarization, fluorescein-MLL peptide displacement from menin. FP activity change, % at 61.4 µM. 290,000 tested, under 10 active. AID 1766; inconclusive = falling polarisation curve, or a change in total fluorescence; inactive = total fluorescence flat and polarisation flat or rising; no compound was filed as active; the % refers to the polarisation; negative = inhibition;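 note: % of control where 0% means no effect; inhibitors lower the polarisation; unlabelled MLL peptide was the positive control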
Starred values were filed as active, the others as inactive; ? = inconclusive; . = not tested or not shown; & = joins results of further samples; [ ] = dose if it differs, or a comment.

SMILES	CtBP-E1A inh	Sfp PPTase inh	TRPV1 PAM	gsp antagonist	ClpP mod	gsp ag	Menin-MLL FL inh
Cn1cc(/C=C/C(=O)N2CCCC(C(=O)c3ccc(C(F)(F)F)cc3)C2)cn1 (configuration not stated)	-11	-2%	-15	4%	.	17%[15.4 µM]	-3.3
Cc1ccc(COC(=O)CN2C(=O)NC3(CCCCC3C)C2=O)cc1 (configuration not stated)	10	.	-2	-2%	.	-10%[15.4 µM]	.
CN1CCN(C(=O)/C(=C/c2cccs2)NC(=O)c2cccs2)CC1	8	11%	5	-1%	-0.6%	-11%	1.9
C=CCn1c(C)cc(/C([O-])=C(/C(=S)Nc2ccc(OC(F)F)cc2)[n+]2ccc(N(C)C)cc2)c1C	-10	-10%	-7	.	.	-2%[15.4 µM]	4.6
COc1ccc(Cl)cc1NC(=S)NNC(=O)c1cccnc1	-13	7%	10	.	.	-2%[15.4 µM]	-2.5
COC(=O)[C@]1(C)N[C@H](CN(C)C(=O)Nc2ccccc2)[C@@H]2C(=O)N(Cc3ccccc3)C(=O)[C@@H]21	-9	.	.	2%	-2.1%	.	.
COc1cc2c(cc1CN1CCN(C(=O)c3cc(OC)c(OC)c(OC)c3)CC1)OCO2	0	-14%	-1	-21%	.	-84%[inhibitor]	-3.8
CC(=O)N/C(=N/c1nc(C)cc(C)n1)Nc1cc(C)cc(C)c1	5	1%	10	6%	.	4%	-2.1
Cc1nc([N+](=O)[O-])cn1CC(=O)Nc1ccc([N+](=O)[O-])cc1	0	16%	8	7%	.	-71%[inhibitor]	0.0
CCOC(=O)c1c(NC(=O)CSc2nnc(CNc3ccc(OC)cc3)n2C)sc(C)c1C	-25	-7%	2	-22%	-0.2%	-27%	1.1
COc1cccc(CNC(=O)c2ccc(CS(=O)Cc3ccc(C)cc3)o2)c1 (configuration not stated)	.	1%	19	-5%	-1.6%	-1%	-3.7
COc1ccc(OC)c(C2C3=C(N=c4s/c(=C\c5cccc(O)c5)c(=O)n42)c2ccccc2CC3)c1 (configuration not stated)	-8	-6%	13	-14%	-0.4%	-71%[inhibitor]	.
COc1ccc(NC(=O)CCCn2c(=O)c3sccc3n(Cc3ccc(C)cc3C)c2=O)cc1	19	50µM*	13	?	1.2%	-30%	-2.8
CCN(C(=O)CSc1nnc(-c2cccs2)o1)C1CCS(=O)(=O)C1 (configuration not stated)	16	21%	3	-2%	.	3%[15.4 µM]	0.8
O=C(Nc1cc(C(=O)N2CCOCC2)cc(C(=O)N2CCOCC2)c1)c1cc(F)c(F)cc1Cl	9	22%	-2	2%	-0.2%	-31%	0.4
O=C(NCc1ccccc1)N1CCN(c2ccc(Cl)c(Cl)c2)CC1	-8	22%	0	-13%	-2.4%	?	0.5
Clc1cnc(N/N=C/c2ccco2)c(Cl)c1	-4	79µM*	0	8%	-11%	-18%	0.4
CCCC(C)C(=O)Nc1nc(C)c(-c2csc(Nc3cc(Cl)ccc3C)n2)s1 (configuration not stated)	-16	-15%	2	1%	-15%	-34%[inhibitor]	3.4
COc1ccc(-c2cc(=O)[nH][nH]2)cc1OC	-6	-1%	1	-16%	-5.3%	22%	3.0
CC1(C)C(=O)Nc2ccccc2N1C(=O)COc1cc(Cl)ccc1Cl	.	.	-7	-14%	2.2%	5%	.
CC(C)OC(=O)CSc1nc2ccccc2s1	23	3%	26	10%	-0.2%	-2%	-1.4
COc1cccc(C2=NOC(C(=O)Nc3cc(C)on3)C2)c1OC (configuration not stated)	7	?	-11	15%	-2.0%	-34%[inhibitor]	7.2
COc1cc(OC)c(C2=NOC(C(=O)NCc3ccc4c(c3)OCO4)C2)cc1Cl (configuration not stated)	?	12%	?	-5%	-9.0%	-5%	4.1
CCOc1cc(CN2CCN(c3cccc(C(F)(F)F)c3)CC2)ccc1O	-20	-19%	-21	-3%	-0.3%	16%	4.5
Cc1cccc(-n2nc3c(c2NC(=O)c2cc4ccccc4o2)CS(=O)(=O)C3)c1	1	-6%	18	-5%	1.1%	-15%[15.4 µM]	.
Cc1ccc(N2CC(C(=O)Nc3ccc(S(=O)(=O)NCC4CCCO4)cc3)CC2=O)cc1 (configuration not stated)	10	2%	-9	0%	1.4%	5%	.
CC1CN(CC(=O)Nc2ccccc2Sc2ccccc2)CC(C)O1 (configuration not stated)	5	?	-28	-9%	0.3%	-31%[inhibitor]	4.5
Cc1ccc(NC(=O)c2ccc(OC(=O)COc3ccc(Cl)c(C)c3)cc2)cc1	3	19%	0	8%	0.2%	-7%	-0.1
Cc1ccc(S(=O)(=O)Nc2ccccc2N=Cc2ccc([N+](=O)[O-])cc2[N+](=O)[O-])cc1	1	.	.	-21%	1.4%	22%	.
COc1ccc(C(=O)NCc2nnc(SCC(=O)NC3CCCCC3)n2C)cc1	1	-2%	-6	3%	-0.9%	-5%[15.4 µM]	-1.0
CCOC(=O)c1ccc(NC(=O)COc2coc(CN3CCc4ccccc43)cc2=O)cc1	9	.	-3	9%	-3.9%	-14%	.
COCCNC(=O)C1CC(c2cccc(OC)c2)=NO1 (configuration not stated)	-9	14%	-8	13%	3.9%	-5%	-0.3
CCN1C(=S)N[C@@H](CCc2ccccc2)[C@H](C(=O)OC)[C@H]1C	-1	0%&14%	9&-16	11%	-0.3%	.	-1.5&0.9
Cc1ccc2oc(-c3ccccc3)nc2c1	17	9%	-2	2%	14µM*	-28%	0.5
CCN1CCN(CCCNC(=O)c2cc3c(s2)-c2ccccc2OC3)CC1	1	6%	-1&1	14%	3.2%&28%	?	-1.4
CCCOc1ccccc1C1CC(=O)Nc2cc3c(cc21)OCO3 (configuration not stated)	-14	8%	-19	6%	1.4%	2%	3.9
CCOC(=O)Cn1nc(C)c(NC(=O)COc2ccc([N+](=O)[O-])c(C)c2)c1C	-11	7%	-1	4%	.	0%[15.4 µM]	0.8
COc1ccc(CCC(=O)NCCc2ccc(OC)c(OC)c2)cc1	0	1%	?	1%	.	-45%[inhibitor]	-12
Cc1ccccc1C(=O)N1CCC(C(=O)NCc2ccc(Cl)cc2)CC1	2	15%	8	-8%	-0.4%	27%	.
CCN(CC)S(=O)(=O)c1cc(NC(=O)COC(=O)CCC(=O)c2cccs2)ccc1C	0	6%	-14	2%	.	0%	-4.0
Cc1cccc(NC(=O)c2cccc(NC(=O)c3ccco3)c2)c1	-6	.	.	-13%	.	-12%	.
C[C@]12CC[C@H](O)CC1=CCC1C2CC[C@@]2(C)C1CC[C@@H]2NC(=O)[C@@H](N)Cc1cnc[nH]1 (some centres not stated)	?	.	.	5%	.	34%	.
Cc1cc(C)c2nc3sc(C(=O)N4CCOCC4)c(N)c3cc2c1	0	?	-6	4%	0.3%	-3%	?
O=C(N/N=C/c1c[nH]c2ccccc12)c1cc(-c2ccccc2)n[nH]1	-15	4%	-4	-18%	.	5%[15.4 µM]	6.0
C[C@@]12C(=O)Nc3ccc(Br)cc3C(=O)N1[C@H]1c3cc(Cl)ccc3OC[C@@H]1[C@@H]2c1ccccc1	.	.	-41	-8%	-6.5%	4%	.
CCCCNc1nc(-c2ccccc2)cc(C(F)(F)F)c1C(N)=O	8	9%	-3	-1%	-12%	?	1.3
CCOc1cccc(/C(O)=C2/C(=O)C(=O)N(CCOC)C2c2ccco2)c1 (configuration not stated)	5	?	?	0%	7.3%	17%	-1.2
O=C(NCC1CCCO1)c1cccc(NC(=O)c2ccco2)c1 (configuration not stated)	-5	15%	3	-8%	-1.6%	?	4.6
Cc1ccc([C@H]2C(C(=O)O)=CC[C@@H](c3ccc(C(C)C)cc3)N2S(=O)(=O)c2ccc(C)cc2)cc1	-22	.	.	-29%	0.4%	.	.
CN(C)c1nc(N/N=C/c2c[nH]c3ccccc23)nc(N2CCOCC2)n1	0	8%	21	1%	-5.7%	-3%	-0.3
Cc1cc(N2CCN(C(c3ccccc3)c3ccccc3)CC2)n2ncnc2n1	9	?	-23	-11%	1.1%	0%	7.8
